Screens from PubChem BioAssay.
Vif A3G – inhibitors of Vif binding to APOBEC3G peptide, primary screen, biochemical, TR-FRET, GST-Vif 1-94, biotin-A3G peptide, dose response retest (AID 1117319); TR-FRET GST-Vif / biotin-A3G peptide binding; higher % means a stronger effect; test concentration not given here; strong numbers were not always called active; actives 0.57% (n = 260,000); inhibition, %, or IC50 in µM where a hit was titrated;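 active means above the screen mean plus three standard deviations and confirmed in dose response; inconclusive means results disagree or hit not tested in dose response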;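 further: Vif residues 1-94 fused to GST binding biotinylated APOBEC3G peptide 110-148; 0% = full assay without inhibitor and 100% = GST in place of GST-Vif; retest series ran down from 100 µM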
FGF22 binding – binders of recombinant human FGF22 by thermal shift. calls only at 9.99 µM. SYPRO orange fluorescence; percent of sucrose octasulfate shift, DMSO zero. actives 1.5% (n = 340,000). AID 651658;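 active means melting point raised past a set limit in the mean and every replicate; inconclusive means no clear call; three in four hits are not shown here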
Target sequence (Q9HCT0 whole entry, looked up): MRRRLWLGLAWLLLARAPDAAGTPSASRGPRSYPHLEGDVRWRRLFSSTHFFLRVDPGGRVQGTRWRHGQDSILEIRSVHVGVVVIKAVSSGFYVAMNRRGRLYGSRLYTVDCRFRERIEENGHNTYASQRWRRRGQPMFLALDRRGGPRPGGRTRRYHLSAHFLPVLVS
HNF4A DNA FP – change in binding of human HNF4 alpha to DNA; P41235; HNF4a-FITC DNA binding, fluorescence polarization, 1 h; activity change, % at 10 µM; actives 0.3% (n = 360,000); in the data active means activity change above about 30%, passing the limit was not always enough;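 further: controls were the assay level and a saturating level of protein; the project sought stronger binding though the title names inhibitors; some compounds called inactive have numbers as strong as hits; positive values seem to mean higher polarization but the record does not say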
Ecoli growth – inhibitors of Escherichia coli growth; OD600, 23 h; hits give low values; OD600 absorbance (concentration not given with the values); actives 0.21% (n = 330,000); AID 1053175;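 active means OD600 absorbance below the run mean of sample wells minus 3.6 SD, in any replicate, cut at about 0.56 in these data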;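 further: stock transfer was 300 nL into about 60 µL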
AF4-AF9 inh – inhibitors of human MLL-AF4/AF9 interaction; P42568; inhibition, % at 10 µM; AID 651704; AlphaScreen, biotin-AF4 peptide binding to FLAG-AF9; actives 0.47% (n = 350,000);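 active means every replicate reaching a set inhibition limit, whatever the replicate mean, cut at about 25% in these data; inconclusive means mean inhibition reaches that limit but some replicates miss it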;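 further: 0% = plate neutral control median and 100% = total signal loss; the record names both 10 and 1 µM as test concentration; the first replicate is given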
Target sequence (P42568 whole entry, looked up): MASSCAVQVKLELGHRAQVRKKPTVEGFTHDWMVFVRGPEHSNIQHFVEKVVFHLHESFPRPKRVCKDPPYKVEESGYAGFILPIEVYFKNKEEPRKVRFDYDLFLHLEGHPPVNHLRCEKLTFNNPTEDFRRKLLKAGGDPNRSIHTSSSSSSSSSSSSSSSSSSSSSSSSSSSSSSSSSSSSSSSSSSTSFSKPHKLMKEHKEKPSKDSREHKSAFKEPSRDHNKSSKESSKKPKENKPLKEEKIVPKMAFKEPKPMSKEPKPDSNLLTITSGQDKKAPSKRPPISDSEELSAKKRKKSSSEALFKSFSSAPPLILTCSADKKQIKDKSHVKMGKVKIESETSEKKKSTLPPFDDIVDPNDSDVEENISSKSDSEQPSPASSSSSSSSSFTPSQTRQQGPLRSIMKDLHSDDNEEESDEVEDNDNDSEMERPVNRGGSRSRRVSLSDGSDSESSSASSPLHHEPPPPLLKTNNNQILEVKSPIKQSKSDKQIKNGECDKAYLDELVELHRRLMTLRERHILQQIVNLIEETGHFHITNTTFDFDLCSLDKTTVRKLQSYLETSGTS
RanGTP-Impb inh – disruptors of Ran-importin-beta complex formation – biochemical, FRET, CFP-Ran, YFP-importin-beta, homogeneous, primary screen | actives 1.1% (n = 300,000) | cell-free CFP-Ran/YFP-importin-beta FRET ratio | inhibition, % (test concentration not listed);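 active means most replicates above 15%; inconclusive means exactly half above 15%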;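 further: 0% = DMSO wells and 100% = Ran loaded with GDP instead of GTP; wells of about 40 µL received 100 nL stock; the first replicate is given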
UCH37 DUB inh – human UCH37 deubiquitinating enzyme inhibition | inhibition, % (test concentration not listed) | purified proteasome/UCH37, Ub-AMC cleavage fluorescence | Q9Y5K5 | actives 0.33% (n = 330,000) | AID 588478;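 active means mean of two replicates above 20%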;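 further: 0% = compound-free wells with enzyme and 100% = wells lacking proteasome; stock transfer was 100 nL into about 20 µL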
Target sequence (Q9Y5K5 whole entry, looked up): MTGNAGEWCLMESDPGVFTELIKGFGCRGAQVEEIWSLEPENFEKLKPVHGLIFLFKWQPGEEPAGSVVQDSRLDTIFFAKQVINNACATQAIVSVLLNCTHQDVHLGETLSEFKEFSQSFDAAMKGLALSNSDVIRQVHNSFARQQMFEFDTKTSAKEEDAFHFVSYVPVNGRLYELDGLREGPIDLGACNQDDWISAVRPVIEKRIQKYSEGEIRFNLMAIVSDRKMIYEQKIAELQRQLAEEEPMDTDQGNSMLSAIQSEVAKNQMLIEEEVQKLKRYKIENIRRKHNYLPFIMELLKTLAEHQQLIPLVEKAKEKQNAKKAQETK
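system = Proteasome-associated human UCH37 deubiquitinase | amount = 0.15 nM proteasome as dispensed | medium = pH 7.4 Tris-HCl (50 mM) with ovalbumin, ATP-MgCl2, DTT | incubation = 30 min preincubation with enzyme, 25 min cleavage at room temperature | detection = AMC fluorescence 355/460 nm | read-out basis = percent inhibition | controls = no-proteasome and no-compound wells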
Starred values were filed as active, the others as inactive; i = inactive; ? = inconclusive; . = not tested or not shown; & = joins results of further samples.

SMILES	Vif A3G	FGF22 binding	HNF4A DNA FP	Ecoli growth	AF4-AF9 inh	RanGTP-Impb inh	UCH37 DUB inh
O=C(Cn1c(=O)n(Cc2ccco2)c(=O)c2cc(Cl)ccc21)NCC1CCCO1 (stereo not given)	-2%	.	2.7	0.78	.	-0.7	0.7
CCCn1c(N)c(N(CCOC)C(=O)c2cccc(S(=O)(=O)N3CCCc4ccccc43)c2)c(=O)[nH]c1=O	2%	i	0.5	0.68	-1.5	4.1	0.6
C[C@H]1CN=C(N(C)C)N1CCC1CCCCC1	.	i	4.6	.	.	.	4.0
CN(C(=O)c1cccc(NC(=O)Cc2ccc(NC(=O)C3CCN(S(=O)(=O)c4cccc([N+](=O)[O-])c4)CC3)cc2)c1)C1CC1	1%	i	-1.1	0.69	-4.3	.	3.6
Cc1ccc(-c2c[n+](=O)c3c(n2[O-])CCC3)cc1	9%	i	0.3	0.65	-0.8	0.0	2.2
COc1ccc([C@@H]2[C@@H]3C(=O)N(C(C)(C)C)C(=O)[C@@H]3[C@]3(Cc4ccccc4)C(=O)N(c4ccc(Br)cc4)C(=O)N23)cc1	.	.	2.4	0.82	.	1.9	-3.8
Cc1cc(C)n(-c2c(F)c(F)c(COC(=O)c3ccccc3)c(F)c2F)n1	10%	.	-1.2	0.67	.	-2.6	0.0
COc1ccc(CCNC(=O)CC2SC(=NCCC(C)C)NC2=O)cc1OC (stereo not given)	.	i	-0.5	0.68	-1.4	-0.7	0.7
CC(=O)c1cccc(NC(=O)C(C)Sc2nnc3ccccn23)c1 (stereo not given)	0%	i	-3.8	.	-3.0	.	.
CCNC(=O)C1(C)CCN(C(=O)c2cc(F)ccc2C)C1 (stereo not given)	.	i	-0.6	.	3.5	.	.

Next section, overlapping the part above by 3 compounds.
SMILES	Vif A3G	FGF22 binding	HNF4A DNA FP	Ecoli growth	AF4-AF9 inh	RanGTP-Impb inh	UCH37 DUB inh
COc1ccc(CCNC(=O)CC2SC(=NCCC(C)C)NC2=O)cc1OC (stereo not given)	.	i	-0.5	0.68	-1.4	-0.7	0.7
CC(=O)c1cccc(NC(=O)C(C)Sc2nnc3ccccn23)c1 (stereo not given)	0%	i	-3.8	.	-3.0	.	.
CCNC(=O)C1(C)CCN(C(=O)c2cc(F)ccc2C)C1 (stereo not given)	.	i	-0.6	.	3.5	.	.
O=C(NC(=S)NCCN1CCOCC1)c1ccc(F)cc1	-10%	i	-0.8	0.68	8.1	2.3	1.9
COc1ccccc1C(=O)Nc1ccnn1C1CCN(C(=O)c2ccoc2C)CC1	6%	i	3.5	0.66	1.6	5.0	1.9
COc1cccc(N2CC(C(=O)Oc3ccc4ccccc4c3)CC2=O)c1 (stereo not given)	-2%	.	1.5	0.7	.	-1.0	1.5
C/C=C(/C)C(=O)O[C@@H]1c2cc3c(c(OC)c2-c2c(cc(OC)c(OC)c2OC)[C@@H](OC(C)=O)[C@@H](C)[C@H]1C)OCO3	1%	.	-2.8	.	.	0.5	-1.3
COC(=O)c1c(-c2ccccc2)nn(-c2ccccc2)c1C(=O)OC	.	i	-2.6	0.67	2.6	5.3	1.9
CC(C)Cc1cc(CN2CCC(CO)(Cc3ccccc3)CC2)[nH]n1	.	i	-2.2	0.71	1.5	2.5	-2.2
CCCc1nc2ccc(NC(C)=O)cc2c(=O)n1Cc1ccccc1Cl	.	i	1.9	0.64	0.5	-1.2	-2.7
CC1CCN(C(=S)SCc2nc(N)nc(Nc3ccccc3)n2)CC1	-1%	i	3.7	0.67	.	-1.6	4.3
COCCCNC(=O)CCn1c(=O)c2ccccc2n(CC(=O)Nc2c(C)cccc2C)c1=O	5%&-3%	.	-3.1	0.74	.	4.1	-1.4
CCN(CC)C(=O)CNC(=O)Cc1ccc(Cl)cc1	23%	.	2.3	0.68	.	2.2	0.9
Cc1ccc(C(=O)CCC(=O)OCC(=O)N2CCN(S(=O)(=O)c3ccc(C)cc3C)CC2)cc1	.	i	-1.7	0.67	-1.7	.	2.8
COc1ccc(C(C)C)cc1S(=O)(=O)N1CCC(C(=O)N2CCN(C)CC2)CC1	.	i	0.7	0.67	-1.1	.	-0.2
Cc1cc(C)cc(Oc2ccccc2/C=C\C(=O)O)c1	6%	.	1.9	0.7	.	-0.5	1.0
Cc1sc2ncnc(NS(=O)(=O)c3ccc(Cl)cc3)c2c1C	.	i	0.5	0.7	-1.6	.	2.8
CCCC(=O)NC(NC(=S)Nc1ccc(S(N)(=O)=O)cc1)C(Cl)(Cl)Cl (stereo not given)	.	.	0.3	0.66	.	-2.5	-2.0
COc1ccc(CNCC(O)COc2ccc(C(C)(C)c3ccccc3)cc2)cc1 (stereo not given)	.	i	3.8	0.57	6.5	2.9	3.5
O=C(CO/N=C/c1cccc([N+](=O)[O-])c1)Nc1ccc2ccccc2c1	0%	.	-1.2	.	.	3.5	.
CCOC(=O)C1(C)CCCN(C(=O)c2cc(C)on2)C1 (stereo not given)	.	i	-0.6	.	0.3	.	.
O=C(c1cccnc1)N1CCN(c2ccc3ccccc3n2)CC1	5%	i	7.1	0.69	-0.7	0.9	-88
CC(C)(C)C(=O)NC(=S)NCCc1ccccc1	-9%	.	1.7	0.75	.	-0.2	1.5
CCCn1c(C)cc(C(=O)CN2C(=O)c3ccccc3S2(=O)=O)c1C	1%	i	-3.4	.	5.4	.	.
O=C(NCC1CCCO1)C1CC(=O)N(c2ccc(F)c(Cl)c2)C1 (stereo not given)	1%	i	0.5	0.72	-2.8	-1.5	1.1
CSCCC(NC(=O)c1ccccc1)C(=O)N(C)CC(=O)Nc1ccc(N2CCOCC2)cc1 (stereo not given)	.	i	-1.4	0.75	0.5	4.4	0.2
O=S(=O)(NCCc1cn2ccccc2n1)c1ccc(F)c(C(F)(F)F)c1	?	i	-1.8	0.7	-11	0.1	3.6
Cc1csc(SCC(=O)Nc2ncc(Cl)c(C)c2Cl)n1	3%	.	-1.8	0.72	.	8.6	0.7
CC1CC(C)CN(S(=O)(=O)c2ccc(C(=O)N3CCN(c4ccccc4)CC3)cc2)C1 (stereo not given)	15%	i	-5.2	0.68	-4.5	2.0	2.5
Cc1cccc(OCCSCc2nc3ccccc3[nH]2)c1	-8%	.	-2.5	0.64	.	4.3	2.8
CC(=O)c1cccc(NC(=O)NCCc2ccc(Cl)cc2)c1	.	i	-1.2	0.68	-1.8	-0.5	-0.9
CCNC(=S)NNC(=O)c1cc(CC(C)C)nc2ccccc12	8%	.	-1.2	0.67	.	1.3	3.2
Cc1cc(Cl)c2oc(C(=O)N3CCCCC3CCN3CCCC3=O)c(C)c2c1 (stereo not given)	.	i	-1.1	0.68	-4.1	-3.5	4.2

Nothing new here: an excerpt of the list.
SMILES	Vif A3G	FGF22 binding	HNF4A DNA FP	Ecoli growth	AF4-AF9 inh	RanGTP-Impb inh	UCH37 DUB inh
CCCn1c(C)cc(C(=O)CN2C(=O)c3ccccc3S2(=O)=O)c1C	1%	i	-3.4	.	5.4	.	.
O=C(NCC1CCCO1)C1CC(=O)N(c2ccc(F)c(Cl)c2)C1 (stereo not given)	1%	i	0.5	0.72	-2.8	-1.5	1.1

(next part)
SMILES	Vif A3G	FGF22 binding	HNF4A DNA FP	Ecoli growth	AF4-AF9 inh	RanGTP-Impb inh	UCH37 DUB inh
Cc1ccc(NC(=O)C2CCN(S(=O)(=O)c3ccc4c(c3)CCCC(=O)N4)CC2)cc1N(C)C	.	i	0.2	0.71	9.2	0.6	5.6
CCC1Nc2ncnc(N3CCOCC3)c2N(Cc2ccccc2)C1=O (stereo not given)	.	i	2.7	0.66	.	5.1	4.8
CCOc1ccccc1C(=O)Nc1ccc(S(=O)(=O)N2CCOCC2)cc1	-6%	.	1.8	0.75	.	3.9	-3.8
O=C(NCc1ccco1)c1ccc2c(=O)n(Cc3ccco3)c(SCC(=O)N3CCCC3)nc2c1	14%	.	-11	0.68	.	.	-1.5
CC(OC(=O)c1ccc(-c2ccc(O)cc2)cc1)C(=O)NC1CCCCC1C (stereo not given)	-4%	i	-3.3	0.67	-1.6	-1.6	-14
CCN1C(=O)[C@H]2[C@@H](c3ccc(-c4ccc(Cl)c(Cl)c4)c(OC)c3)N[C@@](Cc3ccccc3)(C(=O)OC)[C@H]2C1=O	.	i	-12	.	4.3	2.7	1.9
CC(C)C(c1nnnn1Cc1ccc(F)cc1)N1CCN(C2CCCC2)CC1 (stereo not given)	4%	i	-0.9	0.69	-1.9	-0.5	3.5
CCCc1cc(=O)[nH]c(SCC(=O)Nc2ccccc2C#N)n1	6%	.	-7.2	0.68	.	?	1.8
COc1ccc(NC(=O)CN(C)Cc2c(F)cccc2Cl)cc1S(=O)(=O)N1CCCCC1	14%	i	-0.5	0.68	-6.0	2.1	-0.4
Cc1ccc(-n2cc3ccc([N+](=O)[O-])cc3n2)cc1	-4%	.	4.7	0.7	.	0.9	-1.0
CS(=O)(=O)N1CCSC1c1ccc(Br)cc1 (stereo not given)	-5%	i	-0.7	0.7	7.1	6.2	2.7
O=C(NCCc1ccccc1)c1nc(-c2cccs2)no1	-3%	i	-4.9	0.7	-6.8	-2.2	2.8
Cc1ccc(-n2cc(CNCCc3cscn3)c(-c3ccc(F)cc3)n2)cc1	6%	i	4.2	0.64	6.7	-2.3	0.4
O=C1CSC2(CCCCC2)N1CCO	-4%	.	1.1	0.69	.	0.6	3.7
CC(C)N(C)C1=CC(=O)C(N(C)C(C)C)=CC1=O	1%	i	-0.3	0.71	-3.0	.	9.1
Cc1ccccc1-n1c(=O)cc(NCC2CCCO2)[nH]c1=O (stereo not given)	-5%	i	-0.8	0.62	4.1	?	2.5
CCOC(=O)c1c(-c2ccc(C)cc2)csc1NC(=O)C1CC=CCC1C(=O)O (stereo not given)	20%	.	-3.0	0.68	.	-0.4	0.8
COc1ccc(CCNC(=O)C2CCCN(S(=O)(=O)c3cnc[nH]3)C2)cc1OC (stereo not given)	3%	i	3.2	0.76	8.2	0.8	5.3
Cc1ccc(OCC(=O)Nc2ccc3c(c2)OCO3)cc1C	.	i	2.0	0.64	-2.4	2.8	2.3
COc1ccccc1N(CC(=O)NC(C)C)S(=O)(=O)c1cccs1	75%	i	6.2	0.71	-7.3	2.5	3.8
Cc1ccc(C(C)(C)NC(=O)C2CCC(=O)N(CCCN3CCOCC3)C2)cc1 (stereo not given)	.	i	-1.3	0.72	-2.0	1.6	1.5
Cc1cc(NC(=O)c2ccc(NC(=O)C3CCCO3)cc2)ccc1Br (stereo not given)	-2%	i	2.2	0.71	-1.8	4.4	-1.3
CC(C)CCn1c(=O)c2ccccc2n2c(CN3CCOCC3)nnc12	-1%	.	0.3	0.75	0.4	-2.4	-0.7
O=C(c1cc(Cl)ccc1Cl)N1CCN(c2ccccn2)CC1	76%	i	2.4	0.65	-0.7	3.2	5.9
CC(C)Cc1nnc(NC(=O)c2ccc3c(c2)NC(=O)C(C)S3)s1 (stereo not given)	2%	i	4.8	0.71	-0.3	-0.7	3.8
COCCN(C(=O)CSc1n[nH]c(-c2ccccc2)n1)c1c(N)n(Cc2ccccc2)c(=O)[nH]c1=O	1%	i	7.8	0.69	-0.4	-2.7	1.1
CCCCN(C(=O)CSc1nnc2ccccn12)c1c(N)n(Cc2ccccc2)c(=O)[nH]c1=O	.	i	-6.3	0.64	0.5	-2.8	1.1
CCCCOC(=O)Cn1c(=O)c2c(nc(Br)n2Cc2ccccc2)n(C)c1=O	17%	.	1.0	0.71	.	?	1.0
CCCOc1ccc(OCCOCCNCc2ccccc2)cc1	-6%	i	-0.7	0.69	11	?	1.8
CCCCCCN1N=C(C)C(C(=O)c2ccc(Cl)cc2)C1=O (stereo not given)	-2%	.	-1.1	0.71	.	-3.2	4.2
[N-]=[N+]=CC(=O)CNC(=O)[C@@H](Cc1ccccc1)N1C(=O)c2ccccc2C1=O	1%	.	0.6	0.79	.	5.2	0.6

Not all compounds are listed (hit frequency here may not be typical).
